Assay outcomes from PubChem BioAssay.
D2 ag = Beta-Arrestin HTS for Positive Allosteric Modulators of the Human D2 Dopamine Receptor: Agonists; D(2) dopamine receptor (Homo sapiens), P14416; DiscoveRx PathHunter D2 beta-arrestin, luminescence, 90 min; 100% = 57 uM dopamine signal; activation, % (concentration not given with the values); actives 0.084% (n = 360,000); in the data active = activation above about 40%; inconclusive = about 15% to 40%; inactive = below about 15%; also: compound concentration not given in the record; the text of the record calls up to 30% inactive
Target sequence (P14416 whole entry, looked up): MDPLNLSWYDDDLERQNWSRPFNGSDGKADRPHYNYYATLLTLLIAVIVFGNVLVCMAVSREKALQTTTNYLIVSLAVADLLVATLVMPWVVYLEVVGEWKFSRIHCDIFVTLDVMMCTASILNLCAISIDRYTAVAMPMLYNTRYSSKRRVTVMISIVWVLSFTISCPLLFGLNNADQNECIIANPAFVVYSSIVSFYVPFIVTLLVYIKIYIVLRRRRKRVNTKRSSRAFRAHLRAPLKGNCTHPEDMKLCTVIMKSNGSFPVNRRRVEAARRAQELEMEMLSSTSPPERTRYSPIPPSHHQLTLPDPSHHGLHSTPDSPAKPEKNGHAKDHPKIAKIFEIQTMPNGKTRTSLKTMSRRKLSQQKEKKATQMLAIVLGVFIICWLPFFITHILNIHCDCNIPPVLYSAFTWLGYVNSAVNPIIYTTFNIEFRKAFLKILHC
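Agonist mode: compounds alone added to overnight-plated D2 PathHunter cells for 90 min at 37 C, with 57 uM final dopamine (EC100) defining full response. Beta-arrestin recruitment detected by chemiluminescent reagent, read after 1 h at ambient temperature.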
TRPML1 inh = qHTS for Inhibitors of the Human Mucolipin Transient Receptor Potential 1 (TRPML1). activity change, negative = inhibition, % (concentration not given with the values). AID 624415, 2012. Mucolipin-1 (Homo sapiens), Q9GZU1. actives 0.02% (n = 390,000). TRPML1-inducible cells, Ca2+ dye fluorescence, FDSS; hits give low values; inhibition of EC80 agonist-evoked calcium signal; in the data active means activity change below about -50%; inconclusive means about -30% to -50%; inactive means above about -30%;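 also: stimulus is agonist 54-4 at its EC80 concentration; % is scaled to controls: 0 for no effect and ±100 for the full control effect; compound concentration not given in the record; the text of the record puts the active cut at -80%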
Target sequence (Q9GZU1 whole entry, looked up): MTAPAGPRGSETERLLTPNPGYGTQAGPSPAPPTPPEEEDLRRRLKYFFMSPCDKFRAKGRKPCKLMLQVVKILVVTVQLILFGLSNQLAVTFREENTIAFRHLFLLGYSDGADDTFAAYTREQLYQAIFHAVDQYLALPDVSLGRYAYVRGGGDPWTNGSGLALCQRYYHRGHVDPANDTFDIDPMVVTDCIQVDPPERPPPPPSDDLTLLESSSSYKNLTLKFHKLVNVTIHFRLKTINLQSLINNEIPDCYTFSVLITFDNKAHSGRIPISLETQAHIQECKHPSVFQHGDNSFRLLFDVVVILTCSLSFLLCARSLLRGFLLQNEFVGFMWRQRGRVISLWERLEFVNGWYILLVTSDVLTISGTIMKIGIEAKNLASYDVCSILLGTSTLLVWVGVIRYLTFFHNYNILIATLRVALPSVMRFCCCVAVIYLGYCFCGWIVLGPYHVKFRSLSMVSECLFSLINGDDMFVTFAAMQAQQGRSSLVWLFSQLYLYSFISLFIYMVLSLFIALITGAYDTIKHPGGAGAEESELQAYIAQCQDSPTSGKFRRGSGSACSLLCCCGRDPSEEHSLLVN
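Tet-induced TRPML1-DL cells loaded with Ca8 no-wash calcium dye were read kinetically on FDSS. Compound addition was followed by EC80 agonist 54-4 (4 uM final); inhibition was read over 110 s.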
TRPML1 ag = qHTS for Agonists of the Human Mucolipin Transient Receptor Potential 1 (TRPML1); actives 0.12% (n = 410,000); activation, % (concentration not given with the values); Mucolipin-1 (Homo sapiens), Q9GZU1; TRPML1-expressing cells, Ca2+ dye fluorescence, FDSS; host cell line not named in the record; reference of the full effect not given here; in the data active = activation above about 50%; inconclusive = about 30% to 50%; inactive = below about 30%; also: 0% is about no effect; the text of the record puts the active cut at 80%
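TRPML1-DL cells, Tet-induced overnight (~16 h, 37 degrees C), loaded 45-90 min at room temperature with Ca8 no-wash calcium dye plus quencher. FDSS fluorescence: 10 s baseline, compound pin-transfer, 110 s agonist read, then EC80 54-4 (4uM final) and 110 s antagonist read.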
Six1-Eya2 blk = qHTS Assay for Inhibitors of the Six1/Eya2 Interaction; Homeobox protein SIX1 (Homo sapiens) + Protein phosphatase EYA2 (Homo sapiens), …; activity change, % (no concentration beside the values); actives 0.56% (n = 360,000); AlphaScreen GST-Six1/His-Eya2 binding, biochemical; hits give low values; control for the full effect not named in the record; in the data active = activity change below about -65%; inconclusive = about -30% to -65%; inactive = above about -30%; also: % is scaled to controls: 0 for no effect and ±100 for the full control effect; compound concentration not given in the record
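GST-Six1 + His-Eya2 (5X stock: 250/500 nM); Tris pH 8.0, 300 mM NaCl, 0.05% BSA, 0.02% Tween 20; GSH donor/Ni acceptor beads; 1 h 37 °C dark; AlphaScreen readout.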
PINK1 expr mod = A Quantitative High throughput Screen to Identify Chemical Modulators of PINK1 Expression. PINK1 immunofluorescence, high-content cytometry, 24 h. Potency, µM (doses to about 76.6 µM), for the others: top-dose activation (PINK1 increase), usual class: activators. actives 0.2% (n = 410,000); active = well fitted activation curve with a large enough effect; inconclusive = small, poorly fitted or top-dose-only effect; inactive = flat fitted curve, though single readings scatter; cell line not stated here;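 also: potency is read from the fitted curve at half-maximal effect; % of control where 0% means no effect; nearly all actives have a fitted effect of over 65% in size; a mitochondrial uncoupler was the plate control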
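Stable cell line, 250 cells/well, 12 h attachment; compounds pinned at 5 concentrations, 24 h; CCCP control. Fixed with nuclear dye, primary antibodies 12 h at 10 degrees C, secondary plus cell stain; laser-scanning cytometer read.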
CtBP-E1A blk = qHTS Assay for Inhibitors of the CtBP/E1A Interaction; activity change, % (concentration not given with the values); AID 651724, 2012; actives 0.49% (n = 340,000); AlphaScreen GST-E1A/His-CtBP binding, 1536-well; hits give low values; control for the full effect not named in the record; CtBP / adenovirus E1A interaction (AlphaScreen); in the data active means activity change below about -65%; inconclusive means about -30% to -65%; inactive means above about -30%; also: % is scaled to controls: 0 for no effect and ±100 for the full control effect
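GST-E1A and His-tagged CtBP (125 nM each as 5X stock) were preincubated with pin-transferred compound for 2 h at 37 °C in the dark, then glutathione donor and nickel acceptor beads were added for 1 h before AlphaScreen reading.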
* marks the source's active call; other numbers are inactive results; ? = inconclusive; . = no result given; [ ] = dose if it differs, or a comment. Hits appear at their usual frequency. Share with any hit: about 1%.

SMILES	D2 ag	TRPML1 inh	TRPML1 ag	Six1-Eya2 blk	PINK1 expr mod	CtBP-E1A blk
N#Cc1ccc(-c2csc(NC(=O)c3ccc(N4C(=O)CCC4=O)cc3)n2)cc1	-0.2	-8.9	0.2	0.0	2.4%	3.5
Cc1ccccc1C(=O)NNC(=O)C1CCCN(c2ncccn2)C1 (stereo unspecified)	-2.6	6.7	-0.2	0.7	.	7.0
CN(Cc1ccccc1)C(=O)CN1C(=O)NC2(CCCC2)C1=O	-1.6	-0.8	-0.2	-0.1	0.5%	.
CCCCC(=O)Nc1cc([N+](=O)[O-])ccc1Cl	1.0	34.8	-0.1	-3.8	-0.5%	12.7
O=C(NCc1cccnc1)C1CC(c2cccc(Br)c2)=NO1 (stereo unspecified)	-7.1	2.0	-0.1	1.9	5.8%	-5.5
COC(=O)CSc1nc2c(c(-c3ccc(O)cc3)c1C#N)CCCC2	-2.3	13.9	3.1	31.9	6.4%	-7.7
CCC1CCCCN1c1cc(C)nc2cc(-c3cccc(C)c3)nn12 (stereo unspecified)	-0.1	78.7	1.3	5.2	1.0%	0.9
CC1CN(c2cc3nccnc3cc2F)CC(C)O1 (stereo unspecified)	-1.4	-0.2	-0.2	2.7	0.9%[38.3 µM]	-0.5
CCOC(=O)/C=C/[C@H]1CC2(CCO1)SCCCS2	-5.8	2.2	-0.6	-3.1	3.7%	1.1
O=C(COC(=O)CNC(=O)c1ccccc1F)Nc1ccc(Cl)cn1	-2.9	-6.3	0.9	-3.2	-0.2%	2.2

Rewritten with two lines to a compound: entries from further up.
The line under a structure holds: D2 ag, TRPML1 inh, TRPML1 ag, Six1-Eya2 blk, PINK1 expr mod, CtBP-E1A blk
Cc1ccccc1C(=O)NNC(=O)C1CCCN(c2ncccn2)C1 (stereo unspecified)
    -2.6, 6.7, -0.2, 0.7, ., 7.0
CN(Cc1ccccc1)C(=O)CN1C(=O)NC2(CCCC2)C1=O
    -1.6, -0.8, -0.2, -0.1, 0.5%, .
CCCCC(=O)Nc1cc([N+](=O)[O-])ccc1Cl
    1.0, 34.8, -0.1, -3.8, -0.5%, 12.7
O=C(NCc1cccnc1)C1CC(c2cccc(Br)c2)=NO1 (stereo unspecified)
    -7.1, 2.0, -0.1, 1.9, 5.8%, -5.5

More entries follow.
SMILES	D2 ag	TRPML1 inh	TRPML1 ag	Six1-Eya2 blk	PINK1 expr mod	CtBP-E1A blk
CCSc1nc2sc3c(c2c(=O)n1C1CCCCC1)CCN(C)C3	-4.9	-6.5	-1.0	-4.3	4.2%	3.5
CCC(Sc1nnc2c3ccccc3n(CC)c2n1)C(=O)Nc1nnc(C(C)C)s1 (stereo unspecified)	.	-0.6	0.5	.	-3.9%	.
O=C(O)c1ccc(NS(=O)(=O)c2cccc(S(=O)(=O)c3ccc(Cl)c(Cl)c3)c2)cc1	-3.9	-0.2	0.4	-8.3	2.9%	0.7
COc1cccc(-c2cn3c(n2)sc2cc(C(=O)NCc4ccccc4F)ccc23)c1	.	-16.0	-0.2	.	-0.1%	.
N#Cc1ccc(-n2nccc2-c2cnc3n(c2=O)CCS3)cc1	-0.5	22.6	3.4	3.1	-1.4%	-0.8
CCOC(=O)c1cnc(-n2nc(C)cc2C)nc1Nc1ccc(O)cc1	0.3	-0.2	0.6	0.3	1.7%	3.5
Cc1ccnn1CCC(=O)N1CCCC(CCC(=O)N2CCN(c3ccccn3)CC2)C1 (stereo unspecified)	2.0	3.2	1.2	9.0	-1.5%	-8.2
COc1ccc(NC(=O)CSc2nc3n[nH]c(C)c3c(=N)n2-c2ccc(Cl)c(C)c2)cc1OC	11.5	18.2	1.2	-6.5	1.5%	-0.6
Cc1nc(SCC(=O)Nc2cccc(S(=O)(=O)N3CCOCC3)c2)nc(C)c1C	-2.5	7.2	-0.9	8.4	1.1%	-0.8
Cc1cccc(C)c1N1CCN(S(=O)(=O)c2ccccc2)CC1	-4.4	-5.9	1.4	11.5	1.3%	5.8
CC1C(=O)OC2C1CCC1(C)CCC(=O)C(C)C21 (stereo unspecified)	1.5	28.4	-0.1	-3.0	0.3%	1.8
Cc1c([N+](=O)[O-])cc(N2C(=O)C=CC2=O)cc1[N+](=O)[O-]	-1.2	-1.8	-0.3	-9.7	4.1%	0.1
CCOc1c(OC(C)=O)ccc(/C=C/c2ccc3cccc(OC(C)=O)c3n2)c1[N+](=O)[O-]	-4.5	17.2	0.4	-13.2	-3.9%[38.3 µM]	-24.6
O=C(Nc1cccc2c1CCCC2)c1ccncc1	-1.8	23.7	0.3	-1.9	.	-4.5
O=c1ccc2cc3c(-c4ccccc4)coc3cc2o1	4.3	-11.1	2.6	-1.5	-1.4%	-3.3
O=C(COC(=O)Cc1ccc(Br)cc1)NC1CC1	0.1	2.3	-0.5	2.6	1.7%	11.0
C/C(=N\NC(=O)c1cc(C)oc1C)c1ccc2ccccc2c1	-1.2	4.7	0.6	-7.4	0.2%	2.1
COc1ccc(S(=O)(=O)N2CCC(n3c(C(F)(F)F)nc4cccnc43)CC2)cc1OC	.	-6.1	2.5	.	0.4%	.
Cc1cc(C(=O)NNc2cc(Cl)ccc2Cl)no1	-10.4	3.3	-0.6	-19.4	5.8%	6.6
CCN1C(=O)C(CC(=O)N2CCN(C(c3ccccc3)c3ccccc3)CC2)N(CC)C1=O (stereo unspecified)	-0.4	8.7	0.1	-2.0	6.4%[38.3 µM]	1.8
CCCCCNS(=O)(=O)c1cc2c3c(c1)CCC(=O)N3CCC2	5.6	-30.0	-0.8	0.1	-0.5%	2.2
CCOc1ccccc1CNC(=O)c1oc2c(c1C)-c1nn(Cc3cccc(Cl)c3)cc1CC2	.	9.8	1.0	.	0.5%	.
CCNS(=O)(=O)c1ccc(CCC(=O)O)cc1	-0.4	-6.1	0.9	9.1	?	-1.5
N#CC(C(=O)c1ccco1)c1ccccn1 (stereo unspecified)	1.0	-12.7	-0.2	-3.7	10.9%[38.3 µM]	5.0
Cc1cc(C)cc(NC(=S)NCc2ccc3[nH]c4c(c3c2)CCCC4)c1	-4.6	9.7	0.0	-26.5	7.8%	-8.2
COc1ccc(-c2c(C)nc(N)nc2-c2ccc(OC)cc2O)cc1	9.1	-20.3	2.8	?	2.1%	?
COc1ccc(OCC(=O)Nc2ccc3c(c2)nc(CCN2CCOCC2)n3C)cc1	-0.5	10.7	-0.3	1.1	-2.9%	-0.5
COc1ccc(S(=O)(=O)N2CCN(CC(=O)Nc3ccc(Cl)c(C(F)(F)F)c3)CC2)cc1	.	3.2	0.2	.	0.0%	.
O=C(Nc1ccc(F)cc1)c1ccccc1F	-0.6	6.8	0.5	2.3	-3.0%[38.3 µM]	0.4
CC(NC(=O)C12CC3CC(CC(C3)C1)C2)c1ccc(F)cc1 (stereo unspecified)	-3.4	-8.5	-0.1	1.1	2.9%	0.4
Cc1noc(C)c1COc1cccc(C(=O)N2CCN(C/C=C/c3ccccc3)CC2)c1	4.6	-7.2	0.1	-4.1	-1.0%	-6.6
COc1cc2c(c(OC)c1OC)-c1ccc(SC)c(=O)cc1C(NC(=O)c1ccccc1)CC2 (stereo unspecified)	-2.6	-14.2	0.8	-10.2	10.4%	-19.3
COc1ccc(N(CC(=O)Nc2cc(Cl)ccc2C)S(=O)(=O)c2c(C)n[nH]c2C)cc1	-2.2	14.3	-0.5	?	4.2%	.
COc1ccc(-c2nn(-c3ccccc3F)cc2CNCCn2nc(C)cc2C)cc1	-3.6	22.0	0.8	-3.5	3.9%	.
Cc1ccc(S(=O)(=O)N2CCC(C(=O)NCC(C)(C)N3CCOCC3)CC2)c(C)c1	-3.6	-1.3	-0.6	-1.3	-0.2%	.
Cc1cc(NC2=CC(=O)C(=O)c3ccccc32)no1	?	-23.8	1.4	8.5	-2.9%	?
Cc1ccc(-c2cn3nc(N4CCCC(C(=O)Nc5ccc(F)cc5)C4)sc3n2)cc1 (stereo unspecified)	.	10.2	0.3	.	0.2%	.
CC(=O)c1ccc(C(=O)NC2CC(C)(C)Cc3c2cnn3-c2ccccc2)cc1 (stereo unspecified)	-2.0	-18.9	0.3	-1.8	3.2%	9.6
COc1ccc(OC)c(NC(=O)c2cc3sccc3n2C)c1	1.4	-6.8	2.2	-18.0	1.9%[38.3 µM]	-18.0
CC1(C)C(c2ccccc2)=[N+]([O-])C2(CCCCC2=O)N1O (stereo unspecified)	6.1	5.6	1.7	1.6	2.2%	7.1
CNc1ccc(C(O)(C(F)(F)F)C(F)(F)F)cc1C(O)(C(F)(F)F)C(F)(F)F	-2.0	3.4	0.4	2.3	0.6%[38.3 µM]	4.3
CCc1ccc(NC(=O)C2CCN(c3ccc(Sc4ccc(C)cc4)nn3)CC2)cc1	.	7.4	-0.3	.	0.7%	.
O=C(O)c1ccc(COc2ccc3ccccc3c2)o1	-3.6	-7.2	-0.5	7.4	0.2%	.
CN(CCC1CCOCC1)C(=O)c1cc(COc2c(F)cccc2F)on1	2.1	1.6	-0.5	5.0	0.1%	1.3
Cc1nc(NC(=O)COC(=O)[C@@H](NC(=O)c2ccco2)C(C)C)c(Cl)cc1Cl	-3.3	10.2	0.5	0.3	0.4%	-0.9
CCCn1nnnc1NC(=O)CSc1ccc(Cl)cc1	-3.2	25.7	-0.2	-4.6	-1.0%[38.3 µM]	9.0
O=C(c1cc2ccccc2oc1=O)N(Cc1cccs1)C1CCS(=O)(=O)C1 (stereo unspecified)	-3.4	59.5	0.2	-8.1	0.4%	-1.2
CCOc1cc(/C=N/NC(=O)c2ccncc2)ccc1OC(=O)c1ccc([N+](=O)[O-])cc1	10.1	5.7	0.5	6.2	0.2%	-1.1
CCOC(=O)C1CCN(C(=O)CCc2nnc3ccc(N4CCN(C)CC4)nn23)CC1	-5.2	-4.0	-0.5	24.9	0.1%	6.6
O=C(COc1ccc(Br)cc1)Nc1ccc(N2CCOCC2)cc1N1CCOCC1	-3.0	-2.4	0.5	-1.1	9.6%	-4.4
Additional records
SMILES	D2 ag	TRPML1 inh	TRPML1 ag	Six1-Eya2 blk	PINK1 expr mod	CtBP-E1A blk
COc1ccc(NC(=O)CCOc2cc(C)ccc2C)cc1S(=O)(=O)N1CCCCC1	-1.8	-1.7	0.9	-8.0	3.7%	-3.9
C=CCNC(=O)CSc1nc2scc(-c3ccco3)c2c(=O)n1CC=C	3.4	-4.1	2.8	-5.8	-0.3%	-13.3
CCOc1ccc(-n2nc3ccc(NC(=O)COc4ccccc4C)cc3n2)cc1	.	-3.8	0.5	.	0.5%	.
C=CCn1c(=O)/c(=C\c2ccsc2)s/c1=C(/C#N)C(=O)NCCN1CCOCC1	-3.9	-3.3	-0.6	-2.7	-0.6%	-4.1
CCOc1ccc(C(=O)C(C)=O)c(OCC)c1	3.3	-15.5	-0.3	-8.3	-0.1%	9.2
